Screens: PubChem BioAssay, National Center for Advancing Translational Sciences (NCATS)
TRPML1 ag: activates the human TRPML1 channel. activation, % (test concentration not listed). Q9GZU1. TRPML1-expressing cells, Ca2+ dye fluorescence, FDSS; host cell line not named in the record; reference of the full effect not given here. 0.12% of 410,000 active; in the data active = activation above about 50%; inconclusive = about 30% to 50%; inactive = below about 30%; note: 0% is about no effect; the text of the record puts the active cut at 80%
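TRPML1-DL cells, Tet-induced overnight (~16 h, 37 degrees C), loaded 45-90 min at room temperature with Ca8 no-wash calcium dye plus quencher. FDSS fluorescence: 10 s baseline, compound pin-transfer, 110 s agonist read, then EC80 54-4 (4uM final) and 110 s antagonist read.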
TRPML1 blocker: inhibitors of human TRPML1 channel | Q9GZU1 | activity change, negative = inhibition, % (concentration not given with the values) | 0.02% of 390,000 active | TRPML1-inducible cells, Ca2+ dye fluorescence, FDSS; active compounds read low; inhibition of EC80 agonist-evoked calcium signal | AID 624415; in the data active means activity change below about -50%; inconclusive means about -30% to -50%; inactive means above about -30%;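 note: stimulus is agonist 54-4 at its EC80 concentration; % is set by controls: 0 for no effect and ±100 for the full control effect; the text of the record puts the active cut at -80%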
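Tet-induced TRPML1-DL cells loaded with Ca8 no-wash calcium dye were read kinetically on FDSS. Compound addition was followed by EC80 agonist 54-4 (4 uM final); inhibition was read over 110 s.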
PINK1 modulator: changes PINK1 expression; PINK1 immunofluorescence, high-content cytometry, 24 h; Potency, µM (series often up to 76.6 µM), for inactives: top-dose activation (PINK1 increase), hits mostly activators; 0.2% of 410,000 active; active = well fitted activation curve with a large enough effect; inconclusive = small, poorly fitted or top-dose-only effect; inactive = flat fitted curve, though single readings scatter; cell line not stated here;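 note: potency is the fitted concentration of half-maximal effect; % of control where 0% means no effect; nearly all actives have a fitted effect of over 65% in size; a mitochondrial uncoupler was the plate control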
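A stable cell line was treated with compounds at 5 concentrations for 24 hours, with CCCP as control. PINK1 levels and mitochondrial localization were measured by immunofluorescence with mitochondrial, cell and nuclear markers after fixation, read by laser-scanning cytometry.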
Six1-Eya2 inh: Six1/Eya2 interaction inhibition; 0.56% of 360,000 active; AlphaScreen GST-Six1/His-Eya2 binding, biochemical; active compounds read low; control for the full effect not named in the record; Q15475+O00167; activity change, % (test concentration not listed); in the data active = activity change below about -65%; inconclusive = about -30% to -65%; inactive = above about -30%; note: % is set by controls: 0 for no effect and ±100 for the full control effect
Target sequence (O00167 whole entry, looked up): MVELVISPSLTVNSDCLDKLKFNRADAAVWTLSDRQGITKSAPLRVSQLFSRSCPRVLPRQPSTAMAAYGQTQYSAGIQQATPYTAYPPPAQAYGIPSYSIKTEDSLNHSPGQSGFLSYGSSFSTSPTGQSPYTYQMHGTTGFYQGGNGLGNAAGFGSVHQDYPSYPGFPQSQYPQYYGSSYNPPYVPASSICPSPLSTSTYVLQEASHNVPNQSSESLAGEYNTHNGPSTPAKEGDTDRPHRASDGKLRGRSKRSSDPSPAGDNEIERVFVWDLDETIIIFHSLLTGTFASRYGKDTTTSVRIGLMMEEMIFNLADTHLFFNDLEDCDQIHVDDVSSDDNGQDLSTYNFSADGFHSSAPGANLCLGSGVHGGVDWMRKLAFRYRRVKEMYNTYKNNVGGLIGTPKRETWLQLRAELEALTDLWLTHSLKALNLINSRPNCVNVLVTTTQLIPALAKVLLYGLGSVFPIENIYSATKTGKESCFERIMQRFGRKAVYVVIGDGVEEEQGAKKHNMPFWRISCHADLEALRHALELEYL
Target sequence (Q15475 whole entry, looked up): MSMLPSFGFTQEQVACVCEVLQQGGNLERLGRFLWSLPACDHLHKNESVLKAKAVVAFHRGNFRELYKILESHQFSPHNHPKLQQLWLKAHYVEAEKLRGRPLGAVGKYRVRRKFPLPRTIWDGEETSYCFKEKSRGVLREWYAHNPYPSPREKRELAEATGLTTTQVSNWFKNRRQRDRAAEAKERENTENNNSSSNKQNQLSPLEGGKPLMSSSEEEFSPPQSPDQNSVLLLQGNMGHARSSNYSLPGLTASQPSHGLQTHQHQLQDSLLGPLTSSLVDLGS
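Compounds are tested against tagged Six1 and Eya2 proteins bridged by glutathione donor and nickel acceptor beads; after a one-hour incubation at 37 °C without light, AlphaScreen emission is recorded.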
D2 PAM: positive allosteric modulators of human D2 dopamine receptor | P14416 | DiscoveRx D2 beta-arrestin cells, luminescence, 90 min; 100% = 57 uM dopamine signal | potentiation, % (no concentration beside the values) | 0.23% of 360,000 active | AID 624464; active = potentiation of 50% or more; inconclusive = 30% to 50%; inactive = 30% or less;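 note: compound concentration not given in the record; tested on top of an EC20 dose of dopamine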
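PathHunter beta-arrestin assay in DiscoveRx D2 cells. Compounds were added with an EC20 of dopamine (50 nM final) for 90 min at 37 deg C. Luminescence was read 1 h after detection reagent, with 57 uM dopamine as the EC100 control.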
D2 ag: agonists of human D2 dopamine receptor (beta-arrestin). P14416. DiscoveRx PathHunter D2 beta-arrestin, luminescence, 90 min; 100% = 57 uM dopamine signal. activation, % (no concentration beside the values). 0.084% of 360,000 active. AID 624465; in the data active = activation above about 40%; inconclusive = about 15% to 40%; inactive = below about 15%; note: compound concentration not given in the record; the text of the record calls up to 30% inactive
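DiscoveRx PathHunter D2 beta-arrestin cells (2,100/well) attached overnight, then compound-stimulated 90 min at 37 C in HBSS/10 mM HEPES/0.1% Tween-20 buffer; beta-galactosidase complementation read by luminescence after 1 h at ambient temperature. Dopamine 57 uM final (EC100) as control.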
* marks the source's active call; other numbers are inactive results; ? = inconclusive; nt = not tested or not shown; [ ] = another dose, or the depositor's remark.

Each structure is followed by: TRPML1 ag, TRPML1 blocker, PINK1 modulator, Six1-Eya2 inh, D2 PAM, D2 ag
CCOc1ccc2cc(-c3nnc(Nc4ccc(C)cc4)s3)c(=O)oc2c1
  -0.4, 3, 2.9%, nt, nt, nt
O=C(Oc1ccc(Br)cc1C(=S)N1CCOCC1)c1ccc(F)cc1
  0.7, 50, 1.1%, -18, -10, -3.3
COc1ccccc1NC(=O)NC1(C(=O)N2CCN(C)CC2)CCCCC1
  -0.6, 15, 1.8%, 7, -4, 3.9
Cc1nnc2c3ccccc3nc(Nc3cccc(O)c3)n12
  1.4, 13, -1.0%, nt, nt, nt
Cc1ccc(C(=O)Nc2ccccc2)cc1S(=O)(=O)Nc1ccc(Cl)cn1
  -0.3, -3, 1.0%, -12, -2, 1.7
NC(=O)CC1C(=O)N(c2ccc(Cl)cc2)C(=S)N1NC(=O)c1cccc(F)c1 (configuration not stated)
  0.5, 24, 1.7%, -3, -13, -5.1
O=C(CN1C(=O)c2cccc3cccc1c23)Nc1ccccc1
  -0.9, 6, 10%, 9, 4, 3.0
COc1ccc2oc(=O)c(C(=O)N3CCN(c4ccc(F)cc4)CC3)cc2c1
  -0.4, -4, 2.0%, -7, -15, -2.2
Cc1ccc(/C=C2\Oc3cc(OCC(=O)NN)ccc3C2=O)o1
  -0.5, 1, 2.2%, -14, -4, -4.0
NC1=NC[C@H](c2ccccc2)N1CCc1cc(C(F)(F)F)cc(C(F)(F)F)c1
  -0.7, 13, -1.1%, -1, -8, -6.1
CC(C)CC(=O)Nc1cc2nn(-c3ccccc3)nc2cc1Cl
  -0.1, 10, -3.9%, 3, 2, 1.3
CN(C)c1ncnc2c1ncn2[C@H]1CN(Cc2ccc(F)cc2)C[C@@H](CO)O1
  0.2, nt, 0.2%, -13, -7, -4.5
COc1ccc(-c2cc(C(=O)NCC(c3ccccc3)N(C)C)c3ccccc3n2)cc1OC (configuration not stated)
  0.1, 6, -1.5%, 0, -18, 0.6
O=C1NC(=O)C(=C2CCCCCC2)S1
  -0.5, -22, 1.3%, 27, -17, -4.3
Cc1ccccc1C(=O)N1CCN(c2ccc(NC(=O)c3cccc(OC(C)C)c3)cc2)CC1
  3.0, 2, 5.1%, 2, 1, -3.8
COc1ccc(NC(=O)/C(C#N)=C\c2ccc(OCc3ccc(C(=O)O)cc3)c(OC)c2)cc1
  -0.2, 32, 0.3%, -5, -1, 3.4
CCOC(=O)N1CCC(N2CCN(S(=O)(=O)c3ccc(C)cc3)CC2)CC1
  -0.1, -2, 2.4%, -1, -5, 0.1
C/C(=N\NC(=S)NC(C)C)c1ccccc1
  nt, nt, 0.7%, -8, -13, -3.7
C=CCNC(=S)NNC(=O)c1cccn(Cc2ccc(Cl)cc2Cl)c1=O
  0.4, 5, -4.1%, -14, -9, -7.7
CCn1c(COc2cccc(OC)c2)nnc1SCC(=O)Nc1cccc(OC)c1
  1.7, -11, 2.5%, -6, -7, 0.9
CCC1CCCCN1Cc1c(O)ccc2c(=O)c(Oc3ccccc3Cl)c(C(F)(F)F)oc12 (configuration not stated)
  -0.7, 7, 11%, nt, nt, nt
O=C(CSc1nc2scc(-c3ccccc3)c2c(=O)[nH]1)NCCc1ccccc1
  -0.2, 19, 4.3%, 0, -6, -1.7
O=C(CSc1ccc(C(F)(F)F)cc1[N+](=O)[O-])NCCOc1ccccc1
  1.5, 2, 9.3%, -8, -12, -0.3
Cc1cc2c(cc(C(=O)NCc3cccnc3)n2Cc2ccc(Cl)cc2)o1
  0.7, 9, -2.4%[38.3 µM], -7, -10, 3.2
CCCC1(CCC)NC(=O)N(CC(=O)N2CCc3ccccc32)C1=O
  0.7, 14, 0.9%, 5, -3, -1.1
O=c1[nH]cnc2c1C(c1ccccc1)c1c(nc[nH]c1=O)O2
  1.4, 40, 2.2%, -11, 2, -3.8
O=C(Nc1ccc2c(c1)OCCO2)C1CCCN(S(=O)(=O)c2cccnc2)C1 (configuration not stated)
  0.5, 2, 3.8%, -3, 2, 5.9
CCOC(=O)c1c(NC(=O)c2cc(-c3cccc(O)c3)on2)sc(C(C)=O)c1C
  -0.4, -7, 9.3%, -4, -7, -5.4
C=CCNC(=O)c1c(N)n(-c2ccc3c(c2)OCO3)c2nc3ccccc3nc12
  2.4, -8, 22%[38.3 µM], 6, 1, -0.6
COC(=O)c1ccc(-n2cnc3ccccc32)nc1
  0.2, -4, -0.7%, -2, 0, -2.4
O=C1CN(C(=O)CCN2CCOCC2)C(c2ccccc2)c2cc(Br)ccc2N1 (configuration not stated)
  2.0, 16, -1.1%, 14, -20, -2.4
CC(C)(C)CN1CCNC(=O)C1CC(=O)NCCc1ccccc1F (configuration not stated)
  0.1, -5, 0.0%, -6, -3, -1.6
Cc1ccc(NC(=O)CSc2nnc(NC(=O)C3CC3)s2)cc1C
  -0.3, -15, 1.8%, 0, -3, -3.7
COc1ccc(-c2csc(NC(=O)CN3C(=O)C4CC=CCC4C3=O)n2)cc1 (configuration not stated)
  1.5, 44, 11%, -7, 0, 4.9
CC1CN(c2ccc(C(F)(F)F)cc2[N+](=O)[O-])CCN1S(C)(=O)=O (configuration not stated)
  0.2, -21, -5.8%, -3, -5, 0.8
CCN(CC)c1ccc(C(=O)OCC(=O)NC2CCCCC2C)cc1 (configuration not stated)
  3.0, 4, 4.4%, 4, -9, -2.7
CC(=O)c1c(C)[nH]c(C(=O)OCc2ccc(Br)cc2)c1C
  3.6, 11, 2.4%, -10, -5, -1.1
CC(=O)Nc1ccc(S(=O)(=O)Nn2cnnc2)cc1
  -0.5, 48, 0.5%, 4, -2, -4.0
COc1ccc(C(C)=O)cc1CN1C(=O)C(C)N(c2ccc(C)cc2)C1=O (configuration not stated)
  -0.4, 5, 0.4%, -6, 15, -0.5
CC(O/N=C(\N)c1ccccc1)C(=O)Nc1cccc(C(F)(F)F)c1 (configuration not stated)
  -0.7, -5, 0.7%, 5, -1, -2.0
Cc1cc(-n2cccn2)ccc1CN1CCN(CC(C)C)C(CCO)C1 (configuration not stated)
  -0.6, -8, -0.7%, -1, -20, -4.4
CN1C(=O)CC(c2ccccc2)C1=O (configuration not stated)
  -0.9, -5, 1.7%, 7, 0, -5.5
CC(Sc1nc(-c2ccccc2)cc(C(F)(F)F)n1)C(=O)N1CCCC1 (configuration not stated)
  -0.5, -10, -0.4%, -5, -4, -6.6
COc1cc(C(=O)Oc2cccc(C(=S)N3CCOCC3)c2)cc(OC)c1OC
  0.9, -4, -1.1%, -2, 15, 0.6
CCOC(=O)/C(C#N)=C/c1ccc(N2CCN(Cc3ccccc3)CC2)cc1
  9.2, -14, -1.1%, -2, -35, -8.4

Some of these compounds in order of the D2 ag value, lowest first:
| smiles | TRPML1 blocker | PINK1 modulator | Six1-Eya2 inh | D2 PAM | D2 ag |
| --- | --- | --- | --- | --- | --- |
| Cc1cc(-n2cccn2)ccc1CN1CCN(CC(C)C)C(CCO)C1 (configuration not stated) | -8 | -0.7% | -1 | -20 | -4.4 |
| O=C1NC(=O)C(=C2CCCCCC2)S1 | -22 | 1.3% | 27 | -17 | -4.3 |
| O=C(CN1C(=O)c2cccc3cccc1c23)Nc1ccccc1 | 6 | 10% | 9 | 4 | 3.0 |

More entries.
Each structure is followed by: TRPML1 ag, TRPML1 blocker, PINK1 modulator, Six1-Eya2 inh, D2 PAM, D2 ag
O=C(O)c1cccc(Nc2nc(-c3ccccc3)nc3ccccc23)c1
  -1.6, -8, 0.5%, ?, -6, -0.3
O=C(CSc1ccc2nnc(-c3ccncc3)n2n1)NCC1CCCO1 (configuration not stated)
  -0.6, 3, -0.2%, 0, -6, -4.8
O=C(CCNS(=O)(=O)c1ccccc1)NNC(=O)COc1ccc(Cl)cc1
  -0.7, -2, 1.1%, -7, 0, -1.6
C=CCn1c(SCc2ccc(C#N)cc2)nnc1-c1cccc(OC)c1
  2.3, -12, -1.5%, 8, 1, -1.8
Cc1cc(S(=O)(=O)NC2CCN(Cc3ccccc3)CC2)c(C)cc1Cl
  0.0, -1, -1.4%, 2, -13, -3.8
CC(C)(C)OC(=O)C[C@H]1C/C=C\C[C@@H](CC(=O)N[C@@H](CO)Cc2ccccc2)C(=O)NCCOC1=O
  -0.2, 8, 2.0%, 2, -6, -3.4
COc1ccccc1C(=O)NNC(=O)Cc1ccccc1
  -0.1, 9, 0.4%, 8, -2, -3.6
CSc1cc(C)n(-c2ccc(Cl)cc2)c(=S)c1C(C)=O
  -0.9, 55, -0.1%, -2, -9, -7.1
NC(=O)CC1C(=O)N(c2ccc(F)cc2)C(=O)N1NC(=O)CCc1ccccc1 (configuration not stated)
  -0.3, -6, 0.0%, -1, -9, -1.0
CCOC(=O)c1sc(=S)n(C)c1NC(=O)c1ccc(C(C)(C)C)cc1
  3.1, -1, ?, -2, 4, 2.7
Clc1ccccc1-c1ncc2ccccn12
  0.1, -8, 2.8%, -9, 3, -1.0
Cc1cc(C)cc(NC(=O)COC(=O)[C@@H](NC(=O)c2ccco2)C(C)C)c1
  1.1, 4, 5.4%, -2, -11, -4.2
Cc1ccc(CNC(=O)Nc2cc(C(=O)NCc3ccc(C(C)C)cc3)ccc2N2CCCC2)cc1
  0.0, 35, -0.2%, nt, nt, nt
CN1CCN(c2ccc(NC(=O)c3ccc4c(c3)OCO4)cc2)CC1
  0.5, -5, -0.2%, -4, -4, -2.3
CCC(CC)NC(=O)COC(=O)c1ccc(OCc2ccc(C(C)=O)cc2OC)c(OC)c1
  0.7, -3, 14%, -5, -12, 5.0
CNc1nnc(-c2cc3ccccc3oc2=O)s1
  2.6, 18, ?, -3, -8, -1.2
Cc1ccc(-c2ccc(=O)n(CC(=O)NCCN3C(C)CCCC3C)n2)cc1 (configuration not stated)
  -0.1, 1, nt, 0, -13, -3.4
CCOc1ccc(C(=O)Nc2cc(NC(=O)c3ccc(OCC)c(Cl)c3)cc(C(=O)O)c2)cc1Cl
  0.5, -4, -0.4%, -17, -1, 4.3
O=C(NC1CCCC1)C(c1cccnc1)N(C(=O)c1ccco1)c1cccc(F)c1 (configuration not stated)
  0.3, -8, 1.9%, 0, 1, 3.2
Nc1ccc(S(=O)(=O)Nc2ccc(Cl)nn2)cc1
  -0.2, 1, 3.0%, -3, -12, -2.6
COCC(C)n1c(C)cc(C(=O)CSc2nc(C)c(C)c(C)n2)c1C (configuration not stated)
  1.5, -3, 0.3%, -7, -9, 1.1
CSc1nc(-c2ccco2)nn1C(=O)c1ccccc1
  0.0, 36, 2.9%, 6, 5, 0.5
COc1ccc(Nc2cc(C)c3cc(NC(=O)Cc4c(F)cccc4Cl)ccc3n2)cc1
  -0.8, 13, 1.6%, nt, nt, nt
O=C(O)CSCNC(=O)CC12CC3CC(CC(C3)C1)C2
  0.8, -15, -2.2%, 9, 1, -1.4
CCOc1cc(NC(=S)NCCCN2CCOCC2)c(OCC)cc1NC(=O)c1ccc(C)cc1
  -0.6, 13, 1.7%, -1, 0, -1.6
COc1cc(COc2ccc3c(C)c(Cc4ccccc4)c(=O)oc3c2C)cc(OC)c1OC
  0.9, 88, 0.1%, -9, 2, -1.9
Cc1oc2c(C)c3oc(=O)c4c(c3cc2c1C)CCCC4
  1.2, -29, 0.1%[38.3 µM], 0, -4, 3.4
